# Screening results as filed in PubChem BioAssay.
# Insulin prom up: MIN6 insulin promoter up-regulation | z-score at 5 µM | AID 1625 | MIN6 insulin promoter-GFP reporter, high-content imaging; hits give high values | actives 0.3% (n = 190,000);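 active = z-score above 3 at 5 µM with at least 500 cells counted in the well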
# P. falciparum M17LAP: P. falciparum M17LAP inhibitors, primary screen, biochemical, fluorogenic H-Leu-NHMec substrate, 1536-well (AID 1619). recombinant M17LAP, H-Leu-NHMec fluorogenic kinetic assay; higher % means a stronger effect. one-dose inhibition, % at 30 µM; IC50 in µM for titrated hits. actives 0.38% (n = 220,000);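 active = compound inhibiting the enzyme by more than half at any dose during confirmatory dose-response retesting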;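 note: plate controls were full reaction with DMSO carrier for no effect and no enzyme background for full effect; strong numbers were not always called active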
# Yfh1-depleted yeast: mitochondrial function rescue without frataxin homolog – Friedreich's ataxia, plus single-dose screen, dose response (AID 1465); S. cerevisiae Yfh1-off respiration, WST-1 reduction, 72 h; higher fold induction means a stronger effect; actives 0.074% (n = 220,000); one-dose fold induction at 50 µM; EC50 in µM for titrated hits;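 active = fold induction of absorbance versus untreated yeast above a set limit, then at least 30% activation at any dose in follow-up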;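 note: activators that raise dye reduction in frataxin-depleted yeast; strong numbers were not always called active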
# ER stress rescue: rescue of cells from ER stress-induced death, primary screen, 384-well, CSM14.1, thapsigargin, ATP luminescence (AID 1222); cellular ATP content (survival), % at 20 µM, or EC50 in µM where a hit was titrated; 190,000 tested, under 10 active; CSM14.1 thapsigargin-induced death rescue, ATP luminescence; higher % means a stronger effect;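 active = EC50 below 50 µM in the dose-response confirmation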;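 note: death triggered by thapsigargin at about 15 µM added after 2 h compound pretreatment; cell ATP read after overnight thapsigargin exposure of roughly 18 to 22 hours; normalized against plate controls of thapsigargin alone and 5% DMSO vehicle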
# M1AAP inhibition: malaria alanyl aminopeptidase activity blockers – biochemical, fluorogenic H-Leu-NHMec substrate, 1536-well (AID 1445) | recombinant M1AAP, H-Leu-NHMec fluorogenic kinetic assay; higher % means a stronger effect | inhibition, % at 30 µM, or IC50 in µM where a hit was titrated | actives 0.42% (n = 220,000);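 active = primary inhibition above the hit cutoff, then over 50% inhibition at one or more dose response concentrations, cut at about 23% in these data, passing the limit was not always enough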;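 note: plate controls were DMSO full reaction for no effect and no enzyme background for full effect; strong numbers were not always called active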
# Insulin prom up cell count: further read-out of Insulin prom up, marked with its call; cell count; measured here: cytotoxicity, nuclei count;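 total cells summed across four imaged fields per well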
# Active calls of the source: *; i = inactive; x = not tested or not shown; & = joins results of further samples.
SMILES,Insulin prom up,Insulin prom up cell count,P. falciparum M17LAP,Yfh1-depleted yeast,ER stress rescue,M1AAP inhibition
Cn1cc[nH]c1=S,x,x,6%,x,-1.8%,-5%
Cc1ccc2c(c1)c(Sc1ccccc1)c(CC(=O)O)n2C,-0.31,1266,20%,i,1.4%,14%
Clc1ccc(Nc2ncnc3c2cnn3-c2ccccc2)cc1,-0.91,1966,-7%,i,-0.2%,-20%
O=S(=O)(c1ccc2nc(SCc3cccc(Cl)c3)[nH]c2c1)N1CCOCC1,-0.34,1460,-1%,i,5.4%,2%
CC(C)NCC(O)COc1cccc2[nH]ccc12 (configuration not stated),0.51,1534,-5%,x,-1.2%,1%
O=C(CCCN1CCC(O)(c2ccc(Cl)cc2)CC1)c1ccc(F)cc1,-0.29,1422,8%&-1%,i,-3.3%&-1.5%,-4%&0%
Cc1nc(=O)c(-c2ccccc2)c(C)n1-c1ccc(O)c(C(=O)O)c1,x,x,12%,x,x,-2%
COc1cc(Cc2cnc(N)nc2N)cc(OC)c1OC,0.16,1262,2%&5%,i,-0.4%&-3.3%,11%&-2%
O=C(O)c1cccnc1,x,x,-6%,i,-1.5%,-6%

# Rewritten tab-delimited: four of the compounds above.
SMILES	Insulin prom up	Insulin prom up cell count	P. falciparum M17LAP	Yfh1-depleted yeast	ER stress rescue	M1AAP inhibition
Clc1ccc(Nc2ncnc3c2cnn3-c2ccccc2)cc1	-0.91	1966	-7%	i	-0.2%	-20%
COc1cc(Cc2cnc(N)nc2N)cc(OC)c1OC	0.16	1262	2%&5%	i	-0.4%&-3.3%	11%&-2%
Cn1cc[nH]c1=S	x	x	6%	x	-1.8%	-5%
Cc1nc(=O)c(-c2ccccc2)c(C)n1-c1ccc(O)c(C(=O)O)c1	x	x	12%	x	x	-2%

# Structures shown so far with four or more nitrogen atoms, in the order listed:
SMILES,Insulin prom up,Insulin prom up cell count,P. falciparum M17LAP,Yfh1-depleted yeast,ER stress rescue,M1AAP inhibition
Clc1ccc(Nc2ncnc3c2cnn3-c2ccccc2)cc1,-0.91,1966,-7%,i,-0.2%,-20%
COc1cc(Cc2cnc(N)nc2N)cc(OC)c1OC,0.16,1262,2%&5%,i,-0.4%&-3.3%,11%&-2%

# This is a subset; the hit share may differ from the screen's.
